Screening data from PubChem.
OX1R antag-1 – antagonists of human orexin 1 receptor; actives 0.43% (n = 330,000); O43613; CHO/OX1R cells, Fluo-8 calcium fluorescence, orexin A; inhibition, % at 5 µM; AID 434989;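 active = inhibition above its plate's threshold, mean inhibition of all tested compounds on the plate plus 3 SD, cut at about 37% in these data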;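 also: 0% = orexin A challenge wells and 100% = SB-334867-A antagonist wells; not every result past the cut was called active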
Target sequence (O43613 whole entry, looked up): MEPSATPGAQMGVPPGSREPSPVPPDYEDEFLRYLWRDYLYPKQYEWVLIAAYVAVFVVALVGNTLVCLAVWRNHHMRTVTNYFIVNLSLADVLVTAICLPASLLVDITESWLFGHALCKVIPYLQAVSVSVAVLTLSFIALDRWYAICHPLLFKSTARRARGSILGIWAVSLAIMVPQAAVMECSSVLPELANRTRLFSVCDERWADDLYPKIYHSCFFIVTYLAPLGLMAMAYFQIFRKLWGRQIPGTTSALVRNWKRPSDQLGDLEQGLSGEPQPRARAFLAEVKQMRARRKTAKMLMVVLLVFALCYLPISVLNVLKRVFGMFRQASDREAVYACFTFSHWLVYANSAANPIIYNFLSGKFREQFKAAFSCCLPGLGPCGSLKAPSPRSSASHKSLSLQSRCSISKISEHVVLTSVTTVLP
OX1R antag-2 – antagonists of human orexin 1 receptor (OX1R) | O43613 | OX1R-expressing cells, FRET antagonist read-out | inhibition, % at 6.6 µM | actives 1.8% (n = 330,000) | AID 485270; in the data active = inhibition mostly above about 38%, no sharp cut-off; inactive = mostly below about 40%;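 also: 0% = agonist challenge alone and 100% = reference antagonist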
Numbers without * were called inactive.

How did COc1cc(C2CC(=O)N3CN(c4ccccc4C)CSC3=C2C#N)cc(OC)c1OC (stereo not given) do in these assays?
OX1R antag-1: -25; OX1R antag-2: 9

Results for O=C(COc1ccc2c(c1)CCC2)NCc1ccc(Cl)cc1 ?
OX1R antag-1: -26; OX1R antag-2: 13

Results for Cc1cc(=O)oc2c(CN3CCN(CCO)CC3)c(O)ccc12 ?
OX1R antag-1: -7; OX1R antag-2: 22

How did CN1c2ccc([N+](=O)[O-])cc2C(C)(C)C12C=Cc1cc(C(=O)O)ccc1O2 (stereo not given) do in these assays?
OX1R antag-1: -19; OX1R antag-2: 16

Results for O=C(Cn1c(C(F)(F)F)nc2ccccc21)c1ccccc1 ?
OX1R antag-1: -24; OX1R antag-2: 11

Results for CNC(=O)NC(=O)C(OC(=O)c1cccc(S(=O)(=O)N2CCCCC2)c1)c1ccccc1 (stereo not given) ?
OX1R antag-1: -10; OX1R antag-2: 10

What do the screens show for `COc1cc(NC(=O)C23CC4CC(C2)CC(n2cnc([N+](=O)[O-])n2)(C4)C3)cc(OC)c1`?
OX1R antag-1: -13; OX1R antag-2: 11

What do the screens show for `NCCS`?
OX1R antag-1: -7; OX1R antag-2: 6

How did Cc1cc(Cn2nc(-c3ccccc3)cc2C(=O)NCc2cccs2)on1 do in these assays?
OX1R antag-1: -33; OX1R antag-2: 19

Results for COCCn1c(SCc2ccc(C(=O)OC)o2)nc2cc(Cl)ccc2c1=O ?
OX1R antag-1: 2; OX1R antag-2: 8

Results for COc1ccccc1NC(=S)N1CC(C)(C)C1=O ?
OX1R antag-1: -20; OX1R antag-2: 6

How did NC(=O)CC(NC(=O)Cc1ccc(Br)cc1)c1ccc(NCc2ccc(F)c(F)c2)c([N+](=O)[O-])c1 (stereo not given) do in these assays?
OX1R antag-1: 2; OX1R antag-2: 8

How did CC(c1nc2ccccc2c(=O)[nH]1)N(C)CCOc1ccc(Cl)cc1 (stereo not given) do in these assays?
OX1R antag-1: -38; OX1R antag-2: 31

How did COc1cccc(NC(=O)c2ccccc2NS(C)(=O)=O)c1 do in these assays?
OX1R antag-1: -15; OX1R antag-2: 5

What do the screens show for `c1ccc(-c2nc(NCC3CCCO3)c3ccccc3n2)nc1` (stereo not given)?
OX1R antag-1: -10; OX1R antag-2: -10

At a glance, some entries already given:
Results for COCCn1c(SCc2ccc(C(=O)OC)o2)nc2cc(Cl)ccc2c1=O ?
OX1R antag-1: 2; OX1R antag-2: 8

Results for COc1ccccc1NC(=S)N1CC(C)(C)C1=O ?
OX1R antag-1: -20; OX1R antag-2: 6

How did NC(=O)CC(NC(=O)Cc1ccc(Br)cc1)c1ccc(NCc2ccc(F)c(F)c2)c([N+](=O)[O-])c1 (stereo not given) do in these assays?
OX1R antag-1: 2; OX1R antag-2: 8

How did CC(c1nc2ccccc2c(=O)[nH]1)N(C)CCOc1ccc(Cl)cc1 (stereo not given) do in these assays?
OX1R antag-1: -38; OX1R antag-2: 31

How did COc1cccc(NC(=O)c2ccccc2NS(C)(=O)=O)c1 do in these assays?
OX1R antag-1: -15; OX1R antag-2: 5

What do the screens show for `c1ccc(-c2nc(NCC3CCCO3)c3ccccc3n2)nc1` (stereo not given)?
OX1R antag-1: -10; OX1R antag-2: -10

(more compounds)
What do the screens show for `O=C(CSc1ccc2c(c1)OCCO2)NCCN1C(=O)CSC1=O`?
OX1R antag-1: -1; OX1R antag-2: 25

How did Cc1cc(NC(=NC2CC2)c2ccccc2F)n(-c2ccccc2)n1 do in these assays?
OX1R antag-1: -11; OX1R antag-2: 17

Results for O=C(Nc1ccccc1)N1CCCCC1c1cccnc1 (stereo not given) ?
OX1R antag-1: 0; OX1R antag-2: -1

How did CC(C)(O)C#Cc1ccc(C(=O)N2CCCC2C(=O)O)s1 (stereo not given) do in these assays?
OX1R antag-1: -6; OX1R antag-2: 22

What do the screens show for `CSCCC(NC(=O)c1ccccc1Br)C(=O)NCC(c1ccco1)N1CCCCC1` (stereo not given)?
OX1R antag-1: -27; OX1R antag-2: -3

How did OCCC1CN(CC2CCCCC2)CCN1C1CCCC1 (stereo not given) do in these assays?
OX1R antag-1: -15; OX1R antag-2: 6

What do the screens show for `CC1=NN(C(=O)CCc2ccccc2)C(c2ccccc2)C1` (stereo not given)?
OX1R antag-1: 5; OX1R antag-2: 5

Results for CC1(OCON)CCCc2ccccc21 (stereo not given) ?
OX1R antag-1: 9; OX1R antag-2: -4

Results for O=C(O)c1ccc(CSc2ccccn2)cc1 ?
OX1R antag-1: -18; OX1R antag-2: 5

How did CCCOc1ccc(C(=O)Nc2nc(C)c(Cc3ccc4c(c3)OCO4)s2)cc1 do in these assays?
OX1R antag-1: -36; OX1R antag-2: 14

How did COc1ccc(C(CC(=O)O)NC(=O)c2ccco2)cc1 (stereo not given) do in these assays?
OX1R antag-1: -8; OX1R antag-2: 20

Results for O=C(CSc1nc(O)c(Cc2ccccc2F)c(=O)[nH]1)N1CCCCCC1 ?
OX1R antag-1: -30; OX1R antag-2: 4

Results for C=CCn1c(NC(=O)c2ccc(C)cc2)c(C#N)sc1=N ?
OX1R antag-1: -8; OX1R antag-2: 7

What do the screens show for `O=c1cc(-c2ccc(O)c(O)c2)oc2cc(O)c([C@@H]3O[C@H](CO)[C@@H](O)[C@H](O)[C@H]3O)c(O)c12`?
OX1R antag-1: -1; OX1R antag-2: 10

What do the screens show for `COC(=O)NCc1ccc(Cl)c(Cl)c1`?
OX1R antag-1: -4; OX1R antag-2: 21

Some of these compounds in order of heavy-atom count, descending:
How did Cc1cc(NC(=NC2CC2)c2ccccc2F)n(-c2ccccc2)n1 do in these assays?
OX1R antag-1: -11; OX1R antag-2: 17

What do the screens show for `CC1=NN(C(=O)CCc2ccccc2)C(c2ccccc2)C1` (stereo not given)?
OX1R antag-1: 5; OX1R antag-2: 5

What do the screens show for `COC(=O)NCc1ccc(Cl)c(Cl)c1`?
OX1R antag-1: -4; OX1R antag-2: 21

(further entries)
Results for CCN(CC)CCNCC(=O)Nc1ccc(Oc2ccccc2)cc1 ?
OX1R antag-1: -14; OX1R antag-2: 3

How did COC(=O)c1ccccc1NC(=S)NC(=O)c1ccccc1F do in these assays?
OX1R antag-1: -12; OX1R antag-2: 7

What do the screens show for `Cn1nc(-c2ccc(C(=O)Nc3ccc(F)cc3)cc2)c2ccccc2c1=O`?
OX1R antag-1: -26; OX1R antag-2: 18

How did CC1(C)CC(NC(=O)c2ccc(Cl)cc2)CC(C)(C)N1 do in these assays?
OX1R antag-1: -13; OX1R antag-2: -6

How did COc1ccc(C(Nc2ccccn2)c2c(NC(=O)c3ccco3)sc(C)c2C)cc1OC (stereo not given) do in these assays?
OX1R antag-1: -28; OX1R antag-2: 20

What do the screens show for `CCc1nc2nc(C)c(NS(=O)(=O)c3ccc(Cl)cc3)c(=O)n2[nH]1`?
OX1R antag-1: 2; OX1R antag-2: 8

How did COc1c2ccoc2c(OC(C)=O)c2oc(C)cc(=O)c12 do in these assays?
OX1R antag-1: -11; OX1R antag-2: -8

Results for CCOc1ccc(NC(=O)CN(C)C(=O)c2c(-c3ccccc3Cl)noc2C)cc1OCC ?
OX1R antag-1: -18; OX1R antag-2: 23

What do the screens show for `Cc1ccc(-c2csc3ncn(CC(N)=O)c(=O)c23)cc1C`?
OX1R antag-1: -27; OX1R antag-2: 12

How did Cc1oc(-c2ccccc2F)nc1CN1CCC(C(=O)NC2CCCc3ccccc32)CC1 (stereo not given) do in these assays?
OX1R antag-1: -34; OX1R antag-2: 8

What do the screens show for `O=C1CC(C(=O)Nc2cccc(Cl)c2)n2ncnc2N1` (stereo not given)?
OX1R antag-1: -1; OX1R antag-2: 4

Results for CC(=O)c1cccc(CN2CCC(n3nccc3NC(=O)CCc3ccccc3)CC2)c1 ?
OX1R antag-1: -2; OX1R antag-2: 0

How did CCOC(=O)C1CCN(C(=O)c2ccccc2NC(=O)c2ccc(Cl)cc2)CC1 do in these assays?
OX1R antag-1: -37; OX1R antag-2: 11

What do the screens show for `CC(C)(C)c1ccc(C2=CC(c3ccccc3)n3ncnc3N2)cc1` (stereo not given)?
OX1R antag-1: -41; OX1R antag-2: 15

How did CC(=O)Nc1cccc(NC(=O)CS(=O)(=O)c2cn(CC(=O)N(C(C)C)C(C)C)c3ccccc23)c1 do in these assays?
OX1R antag-1: -19; OX1R antag-2: -10

Overlap with the part before: 3 entries, then new ones.
How did CCOC(=O)C1CCN(C(=O)c2ccccc2NC(=O)c2ccc(Cl)cc2)CC1 do in these assays?
OX1R antag-1: -37; OX1R antag-2: 11

What do the screens show for `CC(C)(C)c1ccc(C2=CC(c3ccccc3)n3ncnc3N2)cc1` (stereo not given)?
OX1R antag-1: -41; OX1R antag-2: 15

How did CC(=O)Nc1cccc(NC(=O)CS(=O)(=O)c2cn(CC(=O)N(C(C)C)C(C)C)c3ccccc23)c1 do in these assays?
OX1R antag-1: -19; OX1R antag-2: -10

What do the screens show for `NC(=O)c1nn(-c2ccccc2)c(=O)cc1O`?
OX1R antag-1: -10; OX1R antag-2: 14

How did O=C(O)/C=C\C(=O)Nc1cccc(C(=O)Nc2cccc(O)c2)c1 do in these assays?
OX1R antag-1: -5; OX1R antag-2: 17

What do the screens show for `O=C1CC(c2c[nH]c3ccccc23)C(=O)N1` (stereo not given)?
OX1R antag-1: -8; OX1R antag-2: 10

What do the screens show for `O=C(CSc1n[nH]c(=O)n1C1CC1)N1N=C(c2ccc(Cl)cc2)CC1c1ccco1` (stereo not given)?
OX1R antag-1: -32; OX1R antag-2: 25

What do the screens show for `COc1cc(C)c(Cc2cnc(N)nc2N)cc1OC`?
OX1R antag-1: 7; OX1R antag-2: 9

Results for CCn1cc(C(=O)OCc2ccccc2)c(=O)c2ccc(C)nc21 ?
OX1R antag-1: -24; OX1R antag-2: 27

How did COC(=O)c1nn(-c2ccc3c(c2)OCO3)cc1O do in these assays?
OX1R antag-1: -9; OX1R antag-2: 27

What do the screens show for `CCCCn1c(CCn2nc(C)c(Br)c2C)n[nH]c1=S`?
OX1R antag-1: -20; OX1R antag-2: 15

What do the screens show for `COc1ccccc1CNC(=O)CCCn1nc(C)n2ccnc2c1=O`?
OX1R antag-1: -11; OX1R antag-2: 8

How did O=C(COC(=O)/C=C/c1ccccc1)Nc1ccccc1Br do in these assays?
OX1R antag-1: -8; OX1R antag-2: 13

Results for CCOc1c(OC)cc(C2C(C#N)=C(N)Oc3n[nH]c(-c4ccncc4)c32)cc1OC (stereo not given) ?
OX1R antag-1: -9; OX1R antag-2: 22

What do the screens show for `COc1ccccc1NC(=O)CN(C)S(=O)(=O)c1ccc2c(c1)CCC(=O)N2`?
OX1R antag-1: -19; OX1R antag-2: 16

Results for CCCCOCCCNC(=O)CC(C)c1ccccc1 (stereo not given) ?
OX1R antag-1: -7; OX1R antag-2: 5

Results for NC(=O)c1cnn(-c2ccc3ccccc3c2)c1N ?
OX1R antag-1: 3; OX1R antag-2: 3

What do the screens show for `Cc1ccc(C)c(NC(=S)NNC(=O)c2ccc(Br)o2)c1`?
OX1R antag-1: 0; OX1R antag-2: 18

Results for C/C(=N\NC(=O)COc1ccc(C)cc1[N+](=O)[O-])c1ccc2c(c1)OCCO2 ?
OX1R antag-1: -17; OX1R antag-2: 19

What do the screens show for `Cc1ccccc1C(=O)Nc1nnc(CC(=O)N/N=C/c2cn(Cc3ccccc3)c3ccccc23)s1`?
OX1R antag-1: -5; OX1R antag-2: 9

Results for CCOC(=O)c1cnc2c(C)c(Cl)ccc2c1N1CCN(CC)CC1 ?
OX1R antag-1: -31; OX1R antag-2: 9

Results for COc1ccc(-c2nc3n(c(=O)c2C#N)CCS3)cc1 ?
OX1R antag-1: 11; OX1R antag-2: 37

How did O=C(CNC(=O)c1ccccc1Cl)Nc1ccc(F)cc1 do in these assays?
OX1R antag-1: -5; OX1R antag-2: 26

Results for O=C(COC(=O)CCc1nc2ccccc2c(=O)[nH]1)Nc1ccc2c(c1)OCO2 ?
OX1R antag-1: 1; OX1R antag-2: 6

Results for Cc1cccc(OCC(=O)NCC(=O)N/N=C/c2cccnc2)c1 ?
OX1R antag-1: -14; OX1R antag-2: 2

What do the screens show for `CCn1c(C)c(C(C)=O)c(N2CCCCC2)nc1=S`?
OX1R antag-1: -23; OX1R antag-2: 6

How did O=C(CCCC(=O)OCC(=O)c1cccs1)Nc1ccc(Oc2ccccc2)cc1 do in these assays?
OX1R antag-1: 0; OX1R antag-2: 19

How did O=C(O)c1nn(CC(=O)N(C2CCCCC2)C2CCCCC2)c(=O)c2ccccc12 do in these assays?
OX1R antag-1: -28; OX1R antag-2: 17

What do the screens show for `O=C(Nc1ccc(C(=O)N2CCN(c3ccc(Cl)cc3)CC2)cc1)C1=CSCCO1`?
OX1R antag-1: -14; OX1R antag-2: 12

What do the screens show for `C/C=C/C=C/C(=O)N1CC[C@]23c4ccccc4N[C@H]4N(C)c5cccc6c5[C@]42CCN([C@H]6C2OC2(C)C)[C@H]13` (stereo not given in full)?
OX1R antag-1: -32; OX1R antag-2: 2

What do the screens show for `C=CCNc1nc(C(=O)OCC(=O)c2ccc(F)cc2)cs1`?
OX1R antag-1: -19; OX1R antag-2: 7

What do the screens show for `CCN(CC)CCN1C(=O)c2ccccc2NC1c1cc(OC)c(OC)c(OC)c1` (stereo not given)?
OX1R antag-1: -19; OX1R antag-2: 5

What do the screens show for `O=C(COC(=O)CNS(=O)(=O)c1ccccc1)Nc1ccc(Cl)cn1`?
OX1R antag-1: -15; OX1R antag-2: 8

Results for CC(OC(=O)C1CCN(S(=O)(=O)c2ccc(C(C)(C)C)cc2)CC1)C(=O)N1CCOCC1 (stereo not given) ?
OX1R antag-1: -9; OX1R antag-2: 16

How did Cc1ncccc1C(=O)N1CCCC(CCC(=O)N2CCN(c3ccccn3)CC2)C1 (stereo not given) do in these assays?
OX1R antag-1: -9; OX1R antag-2: 12

Results for COc1cc(/C=N\Nc2nc3ccccc3o2)cc(OC)c1OC ?
OX1R antag-1: -19; OX1R antag-2: 24

Results for O=C(Oc1ccccc1-c1nnco1)c1ccccc1 ?
OX1R antag-1: -8; OX1R antag-2: 4

How did COc1cc([C@@H]2CC=C(C(=O)O)[C@H](c3cccc(Cl)c3)N2S(=O)(=O)c2ccc(C)cc2)cc(OC)c1OC do in these assays?
OX1R antag-1: -87; OX1R antag-2: 52

Not all compounds are listed, and most or all hits are left out here.
